# High-throughput results deposited in PubChem by Center for Chemical Genomics, University of Michigan.
# CDC25B CDK2 inh = human CDC25B-CDK2/CyclinA binding inhibition | HTRF CDC25B-CDK2/CyclinA binding, anti-His/anti-Flag; stronger effect = higher value | z-score (test concentration not listed) | 0.72% of 94,000 active | AID 1259370;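 note: score is relative to mean and SD of negative controls; strong numbers were not always called active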
# HIV TAR-Tat = HIV-1 TAR-Tat binding disruption | HIV-1 TAR RNA, Tat peptide displacement FRET; stronger effect = higher value | z-score (no concentration beside the values) | 0.6% of 100,000 active | AID 1259389;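 note: score is relative to mean and SD of negative controls; some compounds called inactive have numbers as strong as hits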
# * = called active by the depositor; . = no result given.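 Rule for the calls: active = z-score from 3 up in half or more of its runs; inactive = the rest.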
SMILES,CDC25B CDK2 inh,HIV TAR-Tat
CC(C)(C)CC(=O)NCC(c1ccco1)S(=O)(=O)c1cccs1 (stereo not drawn),.,1.7
COc1ccc(Cc2nc3c4cnn(-c5nc6ccccc6s5)c4ncn3n2)cc1OC,-0.59,0.72
CN(C)S(=O)(=O)N1CCC(N2CCN(Cc3ccccc3)C(=O)C2=O)CC1,.,-0.11
CCN1CCN(c2ncc3c(n2)CCN(Cc2ccc(C)cc2)C3)CC1,.,0.66
Cc1ccc(CNS(=O)(=O)c2ccc3c(c2)CCN3S(C)(=O)=O)cc1,.,1.5
COc1ccc(N2CCCS2(=O)=O)cc1NS(=O)(=O)c1ccccc1,.,-0.47
Cn1cc(S(=O)(=O)N2CCCC2)cc1C(=O)Nc1ccc(S(=O)(=O)N2CCOCC2)cc1,.,-0.21
O=C1NC(=O)C(CC(=O)N(Cc2cccs2)C2(C(=O)NC3CCCCC3)CCCCC2)N1 (stereo not drawn),-0.65,.
c1ccc(-c2csc(-c3ccccn3)n2)cc1,-1.9,3.3
CCC(CO)NC(=O)c1c(O)nc2ccccn2c1=O (stereo not drawn),-1.4,-0.02
COc1ccc(S(=O)(=O)N2CCCC(C)C2)cc1OC (stereo not drawn),0.09,-0.08
N#Cc1ccc(-n2nnc3ccccc32)cc1C#N,-2.6,.
C=CCn1c(SCc2ccc(C(=O)NCCO)cc2)nc2sc(C)c(C)c2c1=O,-1.4,0.48
COc1ccc(OC)c(C2C(C(=O)OCCOc3ccccc3)=C(C)NC3=C2C(=O)CC(C)(C)C3)c1 (stereo not drawn),-1.6,1.9
Cc1nc([N+](=O)[O-])cn1CC(=O)c1ccc(-c2cccnc2)s1,-1.1,.
Cc1ccc(-c2c(Nc3c(C)cccc3C)c(=O)c2=O)cc1C,.,2.5
COc1cc(C2c3c(oc4ccccc4c3=O)C(=O)N2c2nc(C)c(C)s2)ccc1O (stereo not drawn),0.55,0.66
CCc1nn(CC(=O)NCCCN2CC(C)CC(C)C2)c(=O)c2cc3sccc3n12 (stereo not drawn),-0.46,-0.91
O=S(=O)(c1ccccc1)N1CCN(S(=O)(=O)c2ccccc2)CC1,-1.2,.
COc1cc(NC(=O)CN2N=NC3C(=O)N(c4ccc(F)cc4)C(=O)C32)cc(OC)c1 (stereo not drawn),.,-0.2
CC1=C(c2ccccc2)S(=O)(=O)NC1=NCCCOC(C)C,-1.9,-0.54
CN(C(=O)c1cccs1)C1CC2C=CC1C2 (stereo not drawn),-2.2,.
CCC(C(=O)Nc1ccc(C(F)(F)F)cc1)c1ccccc1 (stereo not drawn),-0.77,.
O=C(NC1CCSC1=O)c1cccc(C(=O)NC2CCSC2=O)c1 (stereo not drawn),-0.45,26*
Cc1ccc(C(=O)CC(=O)c2ccc(Cl)cc2)c(O)c1,-0.75,1.4

# Entries from the list above containing an aryl methoxy group (6):
SMILES,CDC25B CDK2 inh,HIV TAR-Tat
COc1ccc(Cc2nc3c4cnn(-c5nc6ccccc6s5)c4ncn3n2)cc1OC,-0.59,0.72
COc1ccc(N2CCCS2(=O)=O)cc1NS(=O)(=O)c1ccccc1,.,-0.47
COc1ccc(S(=O)(=O)N2CCCC(C)C2)cc1OC (stereo not drawn),0.09,-0.08
COc1ccc(OC)c(C2C(C(=O)OCCOc3ccccc3)=C(C)NC3=C2C(=O)CC(C)(C)C3)c1 (stereo not drawn),-1.6,1.9
COc1cc(C2c3c(oc4ccccc4c3=O)C(=O)N2c2nc(C)c(C)s2)ccc1O (stereo not drawn),0.55,0.66
COc1cc(NC(=O)CN2N=NC3C(=O)N(c4ccc(F)cc4)C(=O)C32)cc(OC)c1 (stereo not drawn),.,-0.2

# (list continues)
SMILES,CDC25B CDK2 inh,HIV TAR-Tat
CCCCCc1c(C)nc(Nc2nc(C)c3cc(C)ccc3n2)[nH]c1=O,3.1,-1.3
CCc1ccc(-n2ccc(=O)c(C(=O)Nc3c(C)n(C)n(-c4ccccc4)c3=O)n2)cc1,-0.83,-0.24
COc1ccccc1NC(=O)Nc1cn(C)c(=O)c2ccccc12,.,0.34
Cc1nn(S(=O)(=O)c2ccc3c(c2)CCCC3)c(C)c1S(=O)(=O)N1CCCC(C)C1 (stereo not drawn),.,-0.07
CN(C)/C=N/c1sc2c(c1C#N)CC(C)(C)NC2(C)C,-2.6,.
COCCc1nn2c(=O)cc(COC(=O)c3ccccc3C)nc2s1,.,1.2
CCOC(=O)Cn1nc(-c2ccc(C)cc2)c2cnc3ccc(C)cc3c21,.,0.98
Cn1c(SCC(=O)c2c[nH]c3ccccc23)nnc1-c1ccc2c(c1)OCCCO2,.,0.15
CC1(C)CC(=O)C2=C(C1)Nc1[nH]n(-c3ccccc3)c(=O)c1C2c1cccs1 (stereo not drawn),-4,.
CCOC(=O)c1cc(C)n(CC2CCC(C(=O)NC3CCC(C)CC3)CC2)c1C (stereo not drawn),.,0.01
O=c1nc2c(-c3cccc(Cl)c3)n[nH]n2c2ccccc12,.,3.4
CC(=O)N1CCc2c(sc3c2c(=O)n(-c2ccc(F)cc2)c(=O)n3CC(N)=O)C1,0,1.1
CN1CCN(C(=O)c2[nH]c3ccccc3c2Sc2ccc(Cl)cc2)CC1,-2.6,1.6
CCCSC1=C(C#N)C(c2cc(OC)ccc2OC)CC(=O)N1 (stereo not drawn),-1.1,2.8
CC1CC(=O)Nc2cc(S(=O)(=O)Nc3ccccc3F)ccc2S1 (stereo not drawn),.,2.2
Fc1ccccc1C(Nc1ccc2c(c1)OCCO2)c1nnc(-c2ccccc2)o1 (stereo not drawn),.,0.27
Cc1c(C(=O)C(=O)N(C)C2CCCCC2)c2ccccc2n1C,-0.8,.
Cc1cc2c(Nc3ccccc3C)ncnc2s1,-0.8,.
COc1ccc(S(=O)(=O)N2CCCC2c2ccco2)cc1Cl (stereo not drawn),-1.4,0.83
CCCCn1cc(C2CC(=O)N(c3ccc(O)cc3)C2=O)c2ccccc21 (stereo not drawn),-2,-1.1
COC(=O)c1sccc1S(=O)(=O)N1CCN(c2ccccn2)CC1,.,-0.08
CCc1c(C)nc2nncn2c1Nc1ccc(C)cc1,-0.48,0.78
COc1ccc(-c2nc(CSc3nnc(C)n4c3cc3occc34)c(C)o2)cc1OC,.,3.1
Cc1ccc(C)c(N2CCN(S(=O)(=O)c3cc4[nH]c5c(c4cc3C)C(=O)CCC5)CC2)c1,.,2
NS(=O)(=O)c1ccc(NS(=O)(=O)c2cccc(C(F)(F)F)c2)cc1,-1.1,.

# A run of entries of the results above, as a working copy:
SMILES,CDC25B CDK2 inh,HIV TAR-Tat
CCCCCc1c(C)nc(Nc2nc(C)c3cc(C)ccc3n2)[nH]c1=O,3.1,-1.3
CCc1ccc(-n2ccc(=O)c(C(=O)Nc3c(C)n(C)n(-c4ccccc4)c3=O)n2)cc1,-0.83,-0.24
COc1ccccc1NC(=O)Nc1cn(C)c(=O)c2ccccc12,.,0.34

# The results go on.
SMILES,CDC25B CDK2 inh,HIV TAR-Tat
Cc1ccc(N=C2NC(=O)C(CC(=O)Nc3ccc(OC(F)(F)F)cc3)S2)cc1 (stereo not drawn),-0.77,.
O=C(C1CC(c2c(F)cccc2Cl)=NO1)N1CCOCC1 (stereo not drawn),-2.1,0.61
CC(=O)N1C(=O)C(=O)c2cc(S(=O)(=O)N3CCOCC3)ccc21,2.3,0.36
COc1ccc(-c2[nH]nc3c2C(c2ccc(OC)c(OC)c2)C2=C(CC(C)(C)CC2=O)N3)cc1 (stereo not drawn),-0.72,0.83
COc1ccc(Cc2c(N3CCOCC3)nc3n(c2=O)CCCS3)cc1,-1.7,1.7
CC(C)(CC(=O)NC1CCN(Cc2ccccc2)CC1)Sc1ccc(Cl)cc1,-1.5,.
O=C(CCS(=O)(=O)c1ccc2c(c1)CCN2C(=O)C1CC1)NC1CCCC1,.,1.3
Cc1nn(-c2ccccc2)nc1C(=O)NNC(=S)Nc1cccc(Cl)c1C,-0.79,.
O=c1ccc2cc(S(=O)(=O)NCc3ccc(F)cc3)ccc2[nH]1,.,3.8
CCCCC(=O)Nc1c(C(=O)N2CCOCC2)oc2ccccc12,0.49,0.51
CCNc1nc(Oc2ccc(=O)n(C)n2)nc(N2CCOCC2)n1,-0.17,0.84
CC(C)c1ccc2c(c1)-c1ccccc1S(=O)(=O)N2CC(=O)N(C)Cc1ccccc1,0,0.1
O=C(CCCSc1nc(-c2ccco2)cc(C(F)(F)F)n1)NCc1cccs1,-0.39,-0.08
Cc1cc2c(c(=O)o1)C(c1ccc3c(c1)OCO3)C(C#N)=C(N)O2 (stereo not drawn),-1.2,.
Cn1ccnc1SC(F)(F)C(=O)c1cnc2ccccn12,0.54,.
CCN(CC)CCCNC(=O)c1c(O)c2cccc3c2n(c1=O)CCC3,-0.79,.
COc1ccccc1C1/C(=C(\O)c2ccc(Br)cc2)C(=O)C(=O)N1CCCn1ccnc1 (stereo not drawn),-0.75,-0.7
Cc1ccc(CN(C(=O)COc2ccccc2Cl)C2CCS(=O)(=O)C2)o1 (stereo not drawn),-2.3,1.9
CCCN1C(=O)c2[nH]nc(-c3ccc(F)cc3)c2C1c1cccs1 (stereo not drawn),0.08,0.46
CCCCSc1nnc2c(n1)OC(C)=Nc1ccc(Br)cc1-2,-0.44,-0.68
CN(C)/C=N/Nc1ccc([N+](=O)[O-])cc1,-4,.
Cc1c(C(=O)NCCCN2CC(C)CC(C)C2)sc2nc3n(c(=O)c12)CCCC3 (stereo not drawn),.,2.7
c1ccc(-c2nn3c(Cn4cnc5ccccc54)nnc3s2)nc1,-0.67,1.1
N#Cc1cccnc1N1CCN(C(=O)c2cccs2)CC1,-1.6,.
Cc1cccc(N2C(=O)N(c3ccc(F)cc3)C3CS(=O)(=O)CC32)c1C (stereo not drawn),-1.3,1.3
# (listing goes on)
SMILES,CDC25B CDK2 inh,HIV TAR-Tat
CCn1c(=O)oc2cc(NS(=O)(=O)c3ccc4c(c3)c(=O)n(C)c(=O)n4C)ccc21,.,-1.4
O=C(Nc1nnc2n1CCCS2)c1cccs1,.,0.77
Cc1cccc(-c2nc3nc(C)cc(NC(C)c4ccccc4)n3n2)c1 (stereo not drawn),.,2.2
COc1ccc(NC(=O)CCc2nc3sc4c(c3c(=O)[nH]2)CCCCC4)cc1OC,.,0.36
O=C(Nc1c(C(=O)Nc2ccc(Cl)cc2)oc2ccccc12)c1csnn1,-1.4,-0.14
Fc1ccc(-c2nc(-c3ccc4c(c3)ncn4C3CCCC3)no2)cc1,.,1.4
COc1ccc(C)cc1-n1nnc(-c2nc(-c3ccc(Cl)cc3)no2)c1C,.,0.41
Cn1c(=O)c2c(nc(CN3CCN(c4ccccc4F)CC3)n2CC(=O)c2ccccc2)n(C)c1=O,-0.33,-0.37
CCOC(=O)Nc1c(C(=O)OCC)[nH]c2ccc(F)cc12,-2.5,1.3
Cc1noc2nc(C)n(CCOc3ccccc3)c(=O)c12,.,1.5
C=CCC1(NC2CCCCC2)CCCCC1,0.08,.
Cc1cc(C)c2c(n1)nn1c(C)c(CCC(=O)Nc3ccc(Br)cc3F)c(C)nc21,1.8,1.4
CC(=O)N[C@@H]1[C@@H](O)[C@H](O)[C@@H](CO)O[C@@H]1O,0.77,.
COc1ccccc1-c1cc(=O)c2cccc(OC)c2o1,.,3.4
Cc1cc2oc3c(c(=O)c2cc1C)C(c1ccc(C(C)C)cc1)N(CCCn1ccnc1)C3=O (stereo not drawn),-0.86,0.23
CC(C)C1Oc2ccccc2C2CC(c3ccccc3O)=NN21 (stereo not drawn),0.84,0.75
O=C(NCc1ccc2c(c1)OCO2)c1ccc(-n2nc(C(F)(F)F)c3c2CCCC3)cc1,.,0.52
O=C(Cn1nc(-c2ccco2)ccc1=O)N1CCN(c2ccccc2)CC1,.,1.1
Cn1cccc1-c1cc2n(n1)CCC(=O)N2CCCC(=O)N1CCOCC1,.,-1.7
CN(C)c1ncnc2c1c(-c1ccccc1)cn2-c1ccc(F)cc1,-1.4,-1.1
Cc1ccc(NS(=O)(=O)c2ccc3c(c2)NC(=O)C(C)S3)nc1 (stereo not drawn),.,2.1
Cc1ccc(-c2nnc3n2C(C)(C)Cc2ccccc2-3)cc1,-2.9,.
COc1ccc(C(=O)CC2(O)C(=O)Nc3ccc(C)cc32)cc1 (stereo not drawn),-1.1,-1.4
CCCOc1ccc(S(=O)(=O)n2cc(Br)c(=O)[nH]c2=O)cc1,0.68,0.85
O=C(CSc1nc(-c2ccco2)cc(C(F)(F)F)n1)NC1CCCCC1,1.6,0.25
# Additional compounds.
SMILES,CDC25B CDK2 inh,HIV TAR-Tat
CC1(C)Cc2nc3oc4c(=O)n(CC(N)=O)cnc4c3cc2CO1,.,2.1
O=C(CSc1nc2c(c(=O)[nH]1)CCCC2)NC1CCCCC1,-2.8,1.2
CC(C)(CO)N1C(=O)NC2NC(=O)NC21 (stereo not drawn),-1.1,0.08
O=C(O)c1cc(-c2ccncc2)cc2ccccc12,.,1.2
O=C(O)c1cc(-c2cccs2)nc2cc3c(cc12)OCCO3,-1.2,2.9
Cc1ccc(-n2ncc3c(NCc4ccco4)ncnc32)c(C)c1,.,0.94
O=C(NCCN=C1NS(=O)(=O)c2ccccc21)c1ccccc1F,0.39,.
COc1ccc(OCC(=O)Nc2ncccn2)cc1,-1.4,-2.3
CSc1nc(COc2ccc(C(C)(C)C)cc2)nc(N)c1C#N,-0.96,.
CCOc1ccc(/C(O)=C2\C(=O)C(=O)N(c3nnc(C)s3)C2c2ccc(OC)cc2)cc1 (stereo not drawn),-1.2,-0.54
FC(F)(F)c1cc(-c2cccc(Br)c2)nc2ncnn12,-0.53,0.71
O=C(c1ccc(CSc2nc3ccncc3[nH]2)cc1)N1CCN(C(=O)c2ccco2)CC1,-0.94,-0.23

# In a second layout: entries from further up
SMILES | CDC25B CDK2 inh | HIV TAR-Tat
O=C(CSc1nc2c(c(=O)[nH]1)CCCC2)NC1CCCCC1 | -2.8 | 1.2
CSc1nc(COc2ccc(C(C)(C)C)cc2)nc(N)c1C#N | -0.96 | .
